High-throughput results deposited in PubChem BioAssay by National Center for Advancing Translational Sciences (NCATS).
D2 ag: activates the human D2 dopamine receptor; P14416; DiscoveRx PathHunter D2 beta-arrestin, luminescence, 90 min; 100% = 57 uM dopamine signal; activation, % (concentration not given with the values); 360,000 compounds, 0.084% hits; AID 624465; in the data active = activation above about 40%; inconclusive = about 15% to 40%; inactive = below about 15%; note: the text of the record calls up to 30% inactive
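DiscoveRx PathHunter D2 beta-arrestin cells (2,100/well) attached overnight, then compound-stimulated 90 min at 37 C in HBSS/10 mM HEPES/0.1% Tween-20 buffer; beta-galactosidase complementation read by luminescence after 1 h at ambient temperature. Dopamine 57 uM final (EC100) as control.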
D2 potentiator: potentiates the human D2 dopamine receptor allosterically. potentiation, % (test concentration not listed). P14416. 360,000 compounds, 0.23% hits. DiscoveRx D2 beta-arrestin cells, luminescence, 90 min; 100% = 57 uM dopamine signal; active = potentiation of 50% or more; inconclusive = 30% to 50%; inactive = 30% or less;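 note: compound concentration not given in the record; tested on top of an EC20 dose of dopamine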
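PathHunter beta-arrestin assay in DiscoveRx D2 cells. Compounds were added with an EC20 of dopamine (50 nM final) for 90 min at 37 deg C. Luminescence was read 1 h after detection reagent, with 57 uM dopamine as the EC100 control.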
gsp ag: gsp mutant agonism; gsp mutant cells, cAMP HTRF, 30 min; control for the full effect not named in the record; Potency, µM (top dose mostly 76.9 µM), for the others: top-dose activation (cAMP increase), most hits filed as activators; AID 624287; 340,000 compounds, 0.13% hits; active = well fitted activation curve with a large enough effect; inconclusive = small, poorly fitted or top-dose-only effect, or another doubt; inactive = no such curve, though single readings can be large or run the other way; cell line not stated here;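 note: phosphodiesterase inhibitor Ro 20-1724 added with compounds to block cAMP breakdown; potency is the fitted concentration of half-maximal effect; nearly all actives have a fitted effect of over 60% in size; about a fifth of the inactives were tested at one dose only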
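Cells in DMEM/10% FBS with G418 were pretreated with compounds in DMSO plus […] (300 uM stock) for 30 min at 37C. cAMP was measured by HTRF (cAMP-d2 plus anti-cAMP antibody-K) after 30 min at room temperature.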
CtBP-E1A blk: inhibitors of CtBP/E1A interaction; AlphaScreen GST-E1A/His-CtBP binding, 1536-well; hits give low values; control for the full effect not named in the record; activity change, % (no concentration beside the values); 340,000 compounds, 0.49% hits; AID 651724; in the data active means activity change below about -65%; inconclusive means about -30% to -65%; inactive means above about -30%; note: % is set by controls: 0 for no effect and ±100 for the full control effect
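Homogeneous bead-based format: GST-tagged E1A captured on glutathione donor beads, His-tagged CtBP on nickel acceptor beads; compounds precede bead addition by 2 h at 37 °C.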
gsp antagonist: antagonizes gsp, the McCune-Albright syndrome mutation. gsp-mutant cells, cAMP HTRF, 30 min; control for the full effect not named in the record. Potency, µM (doses to about 76.9 µM), for the others: at the top dose activity change, negative = inhibition, usual class: inhibitors. 340,000 compounds, 0.4% hits; active = falling curve of any shape with a large fitted effect; inconclusive = falling curve, mostly with a smaller effect; inactive = flat or rising curve; cell line not stated here;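 note: intracellular cAMP measured with PDE inhibitor Ro 20-1724 present during compound exposure; potency is the fitted concentration of half-maximal effect; % is set by controls: 0 for no effect and ±100 for the full control effect; nearly all actives have a fitted effect of over 65% in size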
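Cells in G418 medium, seeded 16-24 h, 37C; buffer exchange to DPBS + 1 mM CaCl2, 0.5 mM MgCl2, 0.05% BSA; cpds in DMSO + […] (300 uM stock), 30 min 37C; HTRF cAMP detection.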
Six1-Eya2 blk: Six1/Eya2 interaction inhibition. activity change, % (test concentration not listed). AlphaScreen GST-Six1/His-Eya2 binding, biochemical; hits give low values; control for the full effect not named in the record. AID 651725. 360,000 compounds, 0.56% hits. Q15475+O00167; in the data active = activity change below about -65%; inconclusive = about -30% to -65%; inactive = above about -30%; note: % is set by controls: 0 for no effect and ±100 for the full control effect
Target sequence (O00167 whole entry, looked up): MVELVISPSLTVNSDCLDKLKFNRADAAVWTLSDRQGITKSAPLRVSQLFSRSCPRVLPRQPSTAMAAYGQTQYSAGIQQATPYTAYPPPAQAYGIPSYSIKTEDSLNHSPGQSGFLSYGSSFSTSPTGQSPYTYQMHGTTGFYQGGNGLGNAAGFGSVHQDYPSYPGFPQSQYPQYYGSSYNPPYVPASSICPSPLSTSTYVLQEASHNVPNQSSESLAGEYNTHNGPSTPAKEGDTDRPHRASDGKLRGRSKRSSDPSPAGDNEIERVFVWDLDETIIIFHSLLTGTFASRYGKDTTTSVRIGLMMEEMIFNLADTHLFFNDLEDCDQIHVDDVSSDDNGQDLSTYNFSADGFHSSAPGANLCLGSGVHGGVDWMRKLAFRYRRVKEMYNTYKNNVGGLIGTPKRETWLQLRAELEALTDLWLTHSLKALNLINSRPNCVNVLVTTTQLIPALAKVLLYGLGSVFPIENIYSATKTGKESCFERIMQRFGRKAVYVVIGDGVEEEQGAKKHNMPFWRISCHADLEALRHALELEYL
Target sequence (Q15475 whole entry, looked up): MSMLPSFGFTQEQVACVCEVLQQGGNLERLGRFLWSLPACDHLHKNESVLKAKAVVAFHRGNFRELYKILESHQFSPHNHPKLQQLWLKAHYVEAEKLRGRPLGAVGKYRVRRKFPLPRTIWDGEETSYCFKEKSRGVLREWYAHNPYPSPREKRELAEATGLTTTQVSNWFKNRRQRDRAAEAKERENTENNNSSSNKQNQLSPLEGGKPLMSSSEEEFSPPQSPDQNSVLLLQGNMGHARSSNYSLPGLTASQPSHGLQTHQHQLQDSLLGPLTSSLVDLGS
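Compounds are tested against tagged Six1 and Eya2 proteins bridged by glutathione donor and nickel acceptor beads; after a one-hour incubation at 37 °C without light, AlphaScreen emission is recorded.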
Starred values were filed as active, the others as inactive; ? = inconclusive; · = not tested or not shown; & = joins results of further samples; [ ] = another dose, or the depositor's remark.

Under each structure – D2 ag	Six1-Eya2 blk	gsp antagonist	gsp ag	D2 potentiator	CtBP-E1A blk
> CC1(C)C(=O)OC(c2ccccc2)C(C)(C)C1=O (stereo not drawn)
    -2.7	11	8%	-4%[15.4 µM]	-16	-8
> Cc1[nH]nc(SCC(=O)NC2CCCCC2)c1[N+](=O)[O-]
    -3.6	1	8%	-21%	-9	0
> CCCC(=O)Nc1nnc(CC(=O)N2CCCC2)s1
    -6.9	-17	0%	?	18	9
> CN(Cc1ccccc1)C(=O)c1[nH]cnc1C(=O)Nc1ccc(Br)cc1F
    1.6	-2	·	23%	·	0
> CCOC(=O)C(C)Sc1ncc(-c2ccccc2)cn1 (stereo not drawn)
    -2.8	18	-14%	-3%	-5	5
> Cc1nc(SCC(=O)c2c(N)n(C3CC3)c(=O)[nH]c2=O)[nH]c(=O)c1CCO
    -3.8	-13	15%	?	1	·
> CCN(CC)CCN(C(=O)c1ccc2ncsc2c1)c1nc2cc3c(cc2s1)OCO3
    -1.5	-20	-9%	-9%	-36	-10
> Cn1c(-c2cccs2)[n+](C)c2ccccc21
    3.8	-6	-5%	?	5	0
> COc1cc2ccccc2cc1C(=O)N1CCN(C(C)=O)CC1
    -3.4	7	6%	-11%	1	-1
> CC(C)(C)OC(=O)NCCCCCNC(=O)c1[nH]cnc1C(=O)N[C@@H](Cc1ccccc1)C(=O)OC(C)(C)C
    2.8	-8	-26%	·	-10	-8
> O=C1OC(c2ccccc2)=C/C1=C/c1cccs1
    -13	?	-26%	-11%	-44	3
> Cn1c(SCc2cccc([N+](=O)[O-])c2)nc2ccccc2c1=O
    3.0	-4	?	-44%[inhibitor]	-7	-2
> CCc1ccc(C2C(C#N)=C(N)N(N3CCOCC3)C3=C2C(=O)CC(C)(C)C3)s1 (stereo not drawn)
    -0.4	-10	-7%	-11%[15.4 µM]	-2	·
> CCCCS(=O)CC(COC)OC(=O)c1ccccc1 (stereo not drawn)
    4.9	23	10%	-20%	-3	·
> COc1ccc(OC)c(N(CC(=O)Nc2cccnc2)S(=O)(=O)c2ccc(OC)c(OC)c2)c1
    -1.6	0	-9%	-23%	1	7
> Cc1ccc(S(=O)(=O)N2CCCCC2)cc1NC(=O)C1CCC1
    -0.7	11	0%	-9%	12	1
> CCOc1ccc(S(=O)(=O)N2CCCC(C(=O)NCc3cccnc3)C2)cc1 (stereo not drawn)
    -1.6	-3	-3%	11%	20	-4
> CCN(CC)c1ccc2cc(-c3nc4ccccc4n3C)c(=O)oc2c1
    1.6	17	29%	?	6	-11
> OC(CNCc1ccccc1)(c1ccccc1)c1ccccc1
    0.2	2	-2%	-11%	4	·
> O=C(CC1CCCCC1)NCc1ccccc1
    0.7	-7	13%	-67%[inhibitor]	-1	4

(further entries)
Under each structure – D2 ag	Six1-Eya2 blk	gsp antagonist	gsp ag	D2 potentiator	CtBP-E1A blk
> CCn1c(C)nc2cc(C(=O)NN=C(C)c3ccc(C#N)cc3)ccc21
    -0.1	-16	-3%	18%	-1	-16
> CCN=c1scc(-c2ccc3c(c2)NC(=O)CO3)n1N=C1CCCC1
    5.4&4.4	-24&-21	?	?	-3&25	-26&-12
> CC1=CC(C)=Nc2ccc(C)cc2N1
    -1.0&-3.3	0&1	3%&7%	27%&25%	?	3&4
> O=C(COc1cccc2ccccc12)NNC(=O)c1cnccn1
    1.3	-26	-12%	8%	1	10
> O=C(c1cc(-c2cccnc2)nc2ccccc12)N1CCN(S(=O)(=O)c2cccs2)CC1
    5.0	-7	-9%	-7%	4	·
> CCNNC(=O)C(O)(c1cccc(C)c1)c1cccc(C)c1
    -2.4	?	11%	-3%	-6	9
> O=c1[nH]c2ccccc2c(=O)n1Cc1ccco1
    -4.0	0	-10%	0%	0	1
> O=C(C1CC1)N1N=C(c2cccc(Br)c2)CC1(O)C(F)(F)F (stereo not drawn)
    5.2	-13	1%	-26%[15.4 µM]	-8	-3
> CCC1(CC)C(=O)NN(c2ccccc2)C1=O
    -2.4	-2	4%	0%	-11	4
> CC1CCCN(C(=O)c2ccc(NS(=O)(=O)c3cccc([N+](=O)[O-])c3)cc2)C1 (stereo not drawn)
    2.6	0	?	4%	26	7
> Cc1ccc(Cn2cnc3sc4c(c3c2=O)CCC4)c(C)c1
    -2.2	-1	-13%	-52%[inhibitor]	-1	7
> COc1ccc(-n2nc(C(=O)NCC(=O)N3CCN(C)CC3)c3ccccc3c2=O)cc1OC
    1.3	6	9%	23%	-10	7
> O=C(Nc1cccc(-c2cn3ccccc3n2)c1)c1ccccc1
    3.4	-13	-13%	6%[15.4 µM]	1	-10
> CC(=O)c1ccc(N(C(=O)c2ccco2)C(C(=O)NC2CCCC2)c2ccc(N3CCOCC3)cc2)cc1 (stereo not drawn)
    -3.3	5	-6%	9%	-3	1
> O=C1CC(N2CCC(c3nc4ccccc4o3)CC2)C(=O)N1c1ccc(Cl)c(C(F)(F)F)c1 (stereo not drawn)
    -2.5	-3	-8%	-71%	-17	4
> COc1ccc(NS(=O)(=O)c2csc(C(=O)N3CCCC3)c2)cc1
    -2.0	-4	-17%	-1%	-2	-1
> O=C(Nc1cccc(S(=O)(=O)N2CCCCCC2)c1)C1=COCCO1
    4.5	0	6%	0%	-11	2
> Cc1ccccc1C(=O)c1cccn1CC(=O)NC1CCCC(C)C1C (stereo not drawn)
    -6.0	-2	-27%	?	-14	-11
> CC(=O)NS(=O)(=O)c1ccc(NC(=O)c2cc3c(=O)n4ccccc4nc3s2)cc1
    -3.7	?	10%	13%[15.4 µM]	-8	?
> CCOc1ccc(NC(=O)c2sc(NC(C)=O)c(C(=O)OC)c2C)cc1
    -2.5	4	·	0%[15.4 µM]	-1	-15

Results in gsp ag, for some of the entries so far:
SMILES	gsp ag
COc1ccc(-n2nc(C(=O)NCC(=O)N3CCN(C)CC3)c3ccccc3c2=O)cc1OC	23%
O=C(Nc1cccc(-c2cn3ccccc3n2)c1)c1ccccc1	6%[15.4 µM]
CC(=O)c1ccc(N(C(=O)c2ccco2)C(C(=O)NC2CCCC2)c2ccc(N3CCOCC3)cc2)cc1 (stereo not drawn)	9%
O=C1CC(N2CCC(c3nc4ccccc4o3)CC2)C(=O)N1c1ccc(Cl)c(C(F)(F)F)c1 (stereo not drawn)	-71%
COc1ccc(NS(=O)(=O)c2csc(C(=O)N3CCCC3)c2)cc1	-1%
O=C(Nc1cccc(S(=O)(=O)N2CCCCCC2)c1)C1=COCCO1	0%

Returning to the listing; the 6 compounds before the break are reprinted first.
Under each structure – D2 ag	Six1-Eya2 blk	gsp antagonist	gsp ag	D2 potentiator	CtBP-E1A blk
> O=C1CC(N2CCC(c3nc4ccccc4o3)CC2)C(=O)N1c1ccc(Cl)c(C(F)(F)F)c1 (stereo not drawn)
    -2.5	-3	-8%	-71%	-17	4
> COc1ccc(NS(=O)(=O)c2csc(C(=O)N3CCCC3)c2)cc1
    -2.0	-4	-17%	-1%	-2	-1
> O=C(Nc1cccc(S(=O)(=O)N2CCCCCC2)c1)C1=COCCO1
    4.5	0	6%	0%	-11	2
> Cc1ccccc1C(=O)c1cccn1CC(=O)NC1CCCC(C)C1C (stereo not drawn)
    -6.0	-2	-27%	?	-14	-11
> CC(=O)NS(=O)(=O)c1ccc(NC(=O)c2cc3c(=O)n4ccccc4nc3s2)cc1
    -3.7	?	10%	13%[15.4 µM]	-8	?
> CCOc1ccc(NC(=O)c2sc(NC(C)=O)c(C(=O)OC)c2C)cc1
    -2.5	4	·	0%[15.4 µM]	-1	-15
> O=C1c2ccccc2C(Nc2ccc(Cl)cn2)N1c1ccccn1 (stereo not drawn)
    -3.4	6	-8%	-3%	2	-20
> Cc1ccc(NC(=O)C2CCN(S(=O)(=O)c3cccc4nonc34)CC2)nc1
    -3.9	-7	0%[15.4 µM]	24%	-7	-13
> CCCOc1ccc2c(CC)cc(=O)oc2c1C
    -1.9	15	-4%	?	-20	10
> Cc1ccccc1NS(=O)(=O)c1cccc2nonc12
    -4.0	14	5%	?	-9	5
> CCOC(=O)C1(C)CCCN1C(=O)c1csnn1 (stereo not drawn)
    -5.2	21	·	·	-2	38
> CCN(CC)S(=O)(=O)c1ccc(SCC(=O)c2c(N)n(C3CC3)c(=O)[nH]c2=O)nc1
    1.4	-2	·	-36%[inhibitor]	2	-1
> CC(=O)CCc1oc2ccc([N+](=O)[O-])cc2c1-c1ccc(C)o1
    0.4	4	0%	-12%[15.4 µM]	1	2
> CN(c1ccc(C(=O)Nc2ccc(S(=O)(=O)N3CCCC3)cc2)cc1)S(C)(=O)=O
    3.7	-6	-7%	4%[15.4 µM]	0	·
> CCn1c(SC)nnc1-c1nn(-c2ccccc2)ccc1=O
    -1.5	-3	·	-1%[15.4 µM]	-26	18
> CCCCN(CC)CCNC(=O)c1cn(CCOC)c(=O)c2c1c1ccccc1n2C
    -0.9	-2	2%	?	-7	·
> CN1C(=O)N(CC(=O)Nc2cccc(S(=O)(=O)N(C)c3ccccc3)c2)C(=O)C12CCCCC2
    0.8	1	-13%	-38%[inhibitor]	18	-9
> CC12CC(NC(=O)N1c1cccc(C(=O)N3CCN(c4ccccn4)CC3)c1)c1ccccc1O2 (stereo not drawn)
    -4.3	-3	-12%	25%	-8	0
> CCOC(=O)N1CCC(NC(=O)c2cc(S(=O)(=O)N3CCc4ccccc43)cn2C)CC1
    -0.1	-1	-1%	-4%	-4	-4
> Cc1ccc(S(=O)(=O)N(CC(=O)N2CCc3ccccc3C2)c2cccc(Cl)c2)cc1
    -2.6	-9	-25%	1%	-23	0
> Cc1ccc(SCCC(=O)N2CCOCC2)cc1
    -0.5	1	3%	-34%[inhibitor]	-3	6
> O=C(O)Cn1cnc2c(oc3ccccc32)c1=O
    -1.9	9	8%	20%[15.4 µM]	-1	-13
> CCOC(=O)c1cc2[nH]c3ccccc3c2[n+](-c2ccc([N+](=O)[O-])cc2)c1C
    1.2	-5	1%	?	1	-2
> COc1ccc(CN2CCn3ncc(C(=O)Nc4ccccc4)c3C2=O)cc1
    1.5	8	-2%	-30%	-16	-1
> Fc1ccccc1/C=N/Nc1ncnc2ccccc12
    -0.3	-9	-7%	0%	-6	-5
> CCCCn1c(=N)n(CC(O)COc2ccc(C)cc2)c2ccccc21 (stereo not drawn)
    -5.0	-6	12%	6%	-46	-3

An excerpt from above in order of the gsp ag value, smallest number first.
Molecule	gsp ag
CCOC(=O)N1CCC(NC(=O)c2cc(S(=O)(=O)N3CCc4ccccc43)cn2C)CC1	-4%
Fc1ccccc1/C=N/Nc1ncnc2ccccc12	0%
CC12CC(NC(=O)N1c1cccc(C(=O)N3CCN(c4ccccn4)CC3)c1)c1ccccc1O2 (stereo not drawn)	25%
